Compound activity from PubChem.
VDR inhibitor: blocks the human vitamin D receptor; P11473; VDR-SRC2-3 peptide fluorescence polarization, 2 h; Potency, µM, for inactives: max response, negative = inhibition, hits mostly inhibitors; 400,000 tested, 0.93% active; AID 504847; active = well fitted inhibition curve with a large enough effect; inconclusive = small, poorly fitted or top-dose-only effect, or another doubt; inactive = no such curve, though single readings can be large or run the other way; also: series mostly up to about 120 µM
Target sequence (P11473 whole entry, looked up): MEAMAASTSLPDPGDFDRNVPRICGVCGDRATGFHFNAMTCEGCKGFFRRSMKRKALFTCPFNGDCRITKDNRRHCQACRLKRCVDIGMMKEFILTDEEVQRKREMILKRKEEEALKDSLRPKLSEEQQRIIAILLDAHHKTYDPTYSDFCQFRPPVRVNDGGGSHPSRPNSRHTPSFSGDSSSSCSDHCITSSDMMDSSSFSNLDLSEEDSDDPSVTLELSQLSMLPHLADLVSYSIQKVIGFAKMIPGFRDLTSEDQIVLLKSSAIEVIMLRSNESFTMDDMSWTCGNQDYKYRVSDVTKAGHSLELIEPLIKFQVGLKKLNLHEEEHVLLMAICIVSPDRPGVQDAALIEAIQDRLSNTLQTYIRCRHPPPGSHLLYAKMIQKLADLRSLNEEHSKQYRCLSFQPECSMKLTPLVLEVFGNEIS
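After 23 nl compound addition and a short centrifugation, plates sat for 2 hours at ambient temperature; polarization of fluorescence then indicated loss of VDR binding to peptide SRC2-3.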
* hit, by the source's call; ? = inconclusive; [ ] = remark or other dose. % is scaled to controls: 0 for no effect and ±100 for the full control effect; potency is read from the fitted curve at half-maximal effect.

Start of the data: the first 22 entries (preview)
no.	mol	VDR inhibitor
1	CCOc1ccc(NC(=O)CSc2nnc(CNC(=O)c3cccs3)o2)cc1	-24%
2	O=C(NC1CCCCC1)C(c1ccco1)N(C(=O)C(F)(F)F)C1CC1 (stereo not drawn)	7%
3	CSCC[C@H](NC(=O)N1CCn2c1nc1ccccc12)C(=O)NCc1ccc(C)cc1	4%
4	CN(C)CC1CCC/C(=C/c2ccc(Cl)cc2)C1=O (stereo not drawn)	79µM*
5	CCCCN(C1CCS(=O)(=O)C1)S(=O)(=O)c1ccc(C(C)C)cc1 (stereo not drawn)	-18%
6	CC(NCC(=O)Nc1ccccc1C(=O)NC1CC1)c1cccc(Cl)c1 (stereo not drawn)	0%
7	S=c1nc(NCc2cccc(Cl)c2)c2ccccc2[nH]1	4%
8	Cc1ccc2nc(SCC(=O)N(CC(C)C)c3c(N)n(CC(C)C)c(=O)[nH]c3=O)[nH]c2c1	-5%
9	O=C(NNc1ncnc2c1cnn2-c1ccccc1)c1ccccc1	11%
10	COc1cccc(CC(=O)Nc2ccccc2N2CCCC2)c1	21%
11	CC(C)c1ccc(C(C)NC(=S)NC2CCCCC2)cc1 (stereo not drawn)	-1%
12	CCCCOc1ccc2ccccc2c1C=O	10%
13	O=C(CN1C(=O)c2ccccc2C1=O)NCC(=O)OCC(=O)c1ccc(Br)cc1	2%
14	COc1ccc(CN(Cc2cccn2C)S(=O)(=O)c2ccccc2)cc1	-2%
15	N#C/C(=C\c1ccccc1[N+](=O)[O-])c1nc(C2CC2)cs1	?
16	CCc1cc2c(N[C@@H](C)C(=O)O)ncnc2s1	-1%
17	COc1cc(OC)cc(-c2c(-c3cccs3)c3cc(-c4cc(OC)c(OC)c(OC)c4)ccc3n2C)c1	-2%
18	Cc1nc2c(C)cccn2c1/C(O)=C1\C(=O)C(=O)N(CCN(C)C)C1c1ccccc1 (stereo not drawn)	-8%
19	CCCn1nc2cc(C(=O)NCc3ccc(C)cc3)ccc2c1OC	3%
20	C#CCOC(=O)c1csc2nnsc12	-1%
21	N#CCc1c[nH]c2ccc([N+](=O)[O-])cc12	10%
22	CC1=C(C(N)=O)C(c2ccccc2F)NC(=O)N1 (stereo not drawn)	14%

The whole of this part, repeating the preview:
no.	mol	VDR inhibitor
1	CCOc1ccc(NC(=O)CSc2nnc(CNC(=O)c3cccs3)o2)cc1	-24%
2	O=C(NC1CCCCC1)C(c1ccco1)N(C(=O)C(F)(F)F)C1CC1 (stereo not drawn)	7%
3	CSCC[C@H](NC(=O)N1CCn2c1nc1ccccc12)C(=O)NCc1ccc(C)cc1	4%
4	CN(C)CC1CCC/C(=C/c2ccc(Cl)cc2)C1=O (stereo not drawn)	79µM*
5	CCCCN(C1CCS(=O)(=O)C1)S(=O)(=O)c1ccc(C(C)C)cc1 (stereo not drawn)	-18%
6	CC(NCC(=O)Nc1ccccc1C(=O)NC1CC1)c1cccc(Cl)c1 (stereo not drawn)	0%
7	S=c1nc(NCc2cccc(Cl)c2)c2ccccc2[nH]1	4%
8	Cc1ccc2nc(SCC(=O)N(CC(C)C)c3c(N)n(CC(C)C)c(=O)[nH]c3=O)[nH]c2c1	-5%
9	O=C(NNc1ncnc2c1cnn2-c1ccccc1)c1ccccc1	11%
10	COc1cccc(CC(=O)Nc2ccccc2N2CCCC2)c1	21%
11	CC(C)c1ccc(C(C)NC(=S)NC2CCCCC2)cc1 (stereo not drawn)	-1%
12	CCCCOc1ccc2ccccc2c1C=O	10%
13	O=C(CN1C(=O)c2ccccc2C1=O)NCC(=O)OCC(=O)c1ccc(Br)cc1	2%
14	COc1ccc(CN(Cc2cccn2C)S(=O)(=O)c2ccccc2)cc1	-2%
15	N#C/C(=C\c1ccccc1[N+](=O)[O-])c1nc(C2CC2)cs1	?
16	CCc1cc2c(N[C@@H](C)C(=O)O)ncnc2s1	-1%
17	COc1cc(OC)cc(-c2c(-c3cccs3)c3cc(-c4cc(OC)c(OC)c(OC)c4)ccc3n2C)c1	-2%
18	Cc1nc2c(C)cccn2c1/C(O)=C1\C(=O)C(=O)N(CCN(C)C)C1c1ccccc1 (stereo not drawn)	-8%
19	CCCn1nc2cc(C(=O)NCc3ccc(C)cc3)ccc2c1OC	3%
20	C#CCOC(=O)c1csc2nnsc12	-1%
21	N#CCc1c[nH]c2ccc([N+](=O)[O-])cc12	10%
22	CC1=C(C(N)=O)C(c2ccccc2F)NC(=O)N1 (stereo not drawn)	14%
23	O=C(O)C1=C(C2CCCCC2)C(=O)c2ccccc21	-18%
24	O=C(COC(=O)c1cccc(Cl)c1)NC1CCS(=O)(=O)C1 (stereo not drawn)	-8%
25	C=CCn1c(SCC(=O)Nc2ccc(O)cc2)nc2sc(C)c(C)c2c1=O	-4%
26	COc1ccccc1C1/C(=C(/O)c2ccc(OC(C)C)cc2)C(=O)C(=O)N1c1cc(C)on1 (stereo not drawn)	3%
27	Cc1ccc(OCCSc2nc(NC(C)C)nc(NC(C)C)n2)cc1	-2%
28	O=C(COC(=O)C12CC3CC(CC(O)(C3)C1)C2)Nc1ccccc1OC(F)F	-1%
29	O=C(Cn1cc2c(n1)CCCC2)Nc1cc(C(F)(F)F)ccc1Cl	-2%
30	Cc1cc(NC(=O)CSc2nc3cc(Cl)ccc3c(=O)n2C(C)C)no1	-12%
31	CCCCc1n[nH]c2c1/C(=N/O)CC(C)(C)C2	-4%
32	CCC(C)NC(=O)[C@H]1N2C(=O)c3ccccc3C2SC1(C)C (stereo partly drawn)	-3%
33	COC(=O)c1ccc(Cc2ccccc2)o1	-18%
34	Cc1cc2n(n1)C(c1sccc1C)Nc1ccccc1-2 (stereo not drawn)	5%
35	O=C1C2C3C=CC(O3)C2C(=O)N1CC(O)c1ccccc1 (stereo not drawn)	4%
36	O=C(Nc1ccc(Cl)c(Cl)c1)c1cc(S(=O)(=O)N2CCN(c3cccc(Cl)c3)CC2)ccc1F	2%
37	CCc1ccc(CNC(=O)CCc2cn(C)c3ccccc23)cc1	10%
38	O=C(N/N=C1\C2CN3CCN(C2)CC1(c1ccccc1)C3)Nc1ccccc1	20%
39	CN(CC(=O)Nc1ccc(F)cc1)C(=O)COC(=O)c1ccc(=O)n(Cc2ccccc2)n1	20%
40	COCc1cc(=O)n2c([nH]c3ccccc32)c1C#N	-5%
41	Cc1ccc(-c2noc(-c3nnn(-c4ccc(Br)cc4F)c3C)n2)cc1	20%
42	CCOC(=O)c1ccccc1OCc1cc(/C=N/NC(=O)c2cccnc2)ccc1OC	-15%
43	O=C(O)c1ccc(NC(=S)Nc2ccc(S(=O)(=O)Nc3ccccn3)cc2)cc1	4%
44	O=C1CCCC2=C1C(c1cn(-c3ccccc3)nc1-c1cccs1)c1c([nH]c(=O)[nH]c1=O)N2 (stereo not drawn)	2%
45	CCCN=C1NC(=O)C(CC(=O)NCCc2ccccc2)S1 (stereo not drawn)	-25%
46	O=[N+]([O-])c1ccc(COc2ccc(CN3CCOCC3)cc2)cc1	0%
47	COc1ccc(N(CC(=O)NCc2ccco2)C(=O)CCC(=O)Nc2nccs2)cc1	3%
48	COc1ccc(/C=C(/NC(=O)c2ccc(C)cc2)c2nc3ccccc3[nH]2)cc1OC	9%
49	Cc1ccc(C(=O)Nc2cccc(-c3ccc(N4CCOCC4)nn3)c2)cc1C	8%
50	COc1cccc(/C=N/NC(=O)CN2C(=O)NC3NC(=O)NC32)c1 (stereo not drawn)	-6%
51	O=C(Nc1ccccc1Cl)Oc1ccc(Cl)cc1Cl	10%
52	Cc1cccc(C)c1NC(=O)Nc1ccc(S(N)(=O)=O)cc1	0%
53	CC(=O)NC(Cc1c[nH]c2ccccc12)C(=O)N/N=C/c1ccccc1 (stereo not drawn)	32%[activator]
54	COC(=O)c1cc(C(=O)N(Cc2ccccc2)c2ccccn2)cc([N+](=O)[O-])c1	-11%
55	CCOc1ccc(CCNC(=O)c2cc3ccccn3n2)cc1OCC	-3%
56	COCCn1c(SCC(=O)Nc2cc(C)on2)nnc1-c1ccccc1	7%

Continued.
no.	mol	VDR inhibitor
57	COc1ccc(OC)c(Nc2nc(-c3cccc([N+](=O)[O-])c3)nc3ccccc23)c1	-1%
58	CC(=O)c1ccc(-c2c(C3C4C=CCC(C)C4C(=O)N3Cc3ccccc3)ccc3ccccc23)cc1 (stereo not drawn)	-19%
59	O=C(COc1cccnc1[N+](=O)[O-])Nc1ccc(Cl)cc1F	-8%
60	CCCCOc1ccc(Cn2c(=O)oc3ccc(C)cc32)cc1	11%
61	Cc1ccc(Nc2c(-c3cccnc3)nc3ccc(C)cn23)cc1	-5%
62	O=c1[nH]cnc2scc(C3COc4ccccc4O3)c12 (stereo not drawn)	0%
63	COc1cc(NC(C)=O)ccc1NC(=O)c1cc2ccccc2o1	-8%
64	CSc1ccccc1-n1nnnc1SCC(=O)NCc1cccs1	3%
65	Cc1nc(-c2ccc(Cl)cc2)sc1C(=O)NN	-3%
66	O=C(CSCc1ccccc1)Nc1ccc(S(=O)(=O)Nc2ncccn2)cc1	21%
67	COc1ccc(CNC(=S)Nc2cc(C)ccc2C)cc1	22%
68	COc1ccc(N2CCN(C(=O)CCc3c(C)nc4cc(-c5cccc(F)c5)nn4c3C)CC2)cc1	3%
69	CCOC(=O)C1(CCCc2ccccc2)CCN(C(=O)C2CCCO2)CC1 (stereo not drawn)	-5%
70	COc1ccc(S(=O)(=O)Nc2cccc(-c3ccc(N4CCCC4)nn3)c2)cc1OC	12%
71	O=C(COC(=O)C1CC(=O)N(c2ccccc2)C1)c1ccccc1 (stereo not drawn)	-28%
72	CCc1nnc(NC(=O)c2nc(SC)ncc2Cl)s1	7%
73	Cc1ccccc1OCC(=O)N/N=C1\CCOc2c(C)cccc21	-3%
74	O=C(Nc1ccc2c(c1)Cc1ccccc1-2)c1ccco1	6%
75	O=C(NCc1ccco1)C1CCCN1S(=O)(=O)c1ccccc1C(F)(F)F (stereo not drawn)	-10%
76	Cc1nn(C(=O)CCCC(=O)NCc2ccccc2)c2ccccc12	-11%
77	CCC(c1nnnn1Cc1cccs1)N1CCN(c2nc3ccccc3s2)CC1 (stereo not drawn)	-20%
78	Cc1ccc(Nc2ncc3c(n2)CC(c2ccco2)CC3=O)c(C)c1 (stereo not drawn)	-2%
79	O=C(CN1CCN(C(=O)c2cccc(F)c2)CC1)Nc1ccccc1F	-7%
80	COc1ccc2[nH]c(C(=O)O)c(CCC(=O)O)c2c1	-7%
81	Cc1nn(C)c(=O)n1-c1ccccc1	-21%
82	CCc1ccc(C(=O)CN2CCSC2=N)cc1	-1%
83	CCn1c(CC(=O)Nc2ccc(F)cc2)nnc1SCC(=O)Nc1nncs1	7%
84	O=C(NCC(c1cccnc1)N1CCc2ccccc21)c1cccc(C(F)(F)F)c1 (stereo not drawn)	6%
85	CC(C)=CCCC1=CCC(/C(C)=N/NC(N)=O)CC1 (stereo not drawn)	10%
86	O=C(CCn1c(=O)oc2ccccc21)NCCC1=CCCCC1	-22%
87	COc1cccc(NC(=O)CSc2ncnc3c2oc2ccccc23)c1	0%
88	CCCCC(CC)CN1C(=O)/C(=C/c2ccncc2)SC1=S (stereo not drawn)	-24%
89	O=C1c2ccccc2-c2ccc(C(=O)N3CCCCC3)cc21	4%
90	O=C(CSc1nnc(CNC(=O)c2cccs2)o1)Nc1ccc(Cl)cc1	-7%
91	COc1cc2c(cc1OC)C(c1ccc(Cl)cc1)CC(=O)N2 (stereo not drawn)	3%
92	Cc1cccc(S(=O)(=O)NCCc2ccccc2)c1	-1%
93	CC(=O)Nc1ccc(NC(=O)CSc2ccc3nnc(CCNC(=O)c4ccccc4)n3n2)cc1	-17%
94	CCCCNC(=O)CSc1nc2ccccc2n1S(=O)(=O)c1ccc(Br)cc1	3%
95	O=C(NCC(=O)N1CCC2(CC1)NCCc1[nH]cnc12)c1cccc(Cl)c1	-16%
96	COc1cccc(C(=O)Nc2ccc(S(=O)(=O)Nc3cc(C)nc(C)n3)cc2)c1	-2%

Part of the list above in another layout:
90. O=C(CSc1nnc(CNC(=O)c2cccs2)o1)Nc1ccc(Cl)cc1
- VDR inhibitor: -7%

91. COc1cc2c(cc1OC)C(c1ccc(Cl)cc1)CC(=O)N2 (stereo not drawn)
- VDR inhibitor: 3%

(next part)
no.	mol	VDR inhibitor
97	CN(C)c1ccc(/C=C/c2cccc[n+]2[O-])cc1	-15%
98	Cc1c(C(=O)N/N=C/c2ccncc2)no[n+]1[O-]	-13%
99	Cc1cc(C)n2cc(CSc3nnc(-c4ccccc4)o3)nc2n1	-12%
100	O=C(NCc1ccccc1)c1cccc(S(=O)(=O)N2CCOCC2)c1	7%
101	O=C(Cn1ncc2c(=O)oc3ccccc3c21)N1CCCN(Cc2ccccc2F)C1	-3%
102	O=C(COC(=O)C1CC1)Nc1c(Cl)cccc1C(F)(F)F	-19%
103	COc1ccc2[nH]c(C)c(-c3csc(N)n3)c2c1	24%
104	CCN(CC)Cc1c(C(=O)OC)nnn1-c1nonc1N	-16%
105	CCCSC1=NC2(CCN(C(=O)NC3CCCCC3)CC2)N=C1c1ccccc1	-8%
106	Cc1ccc(C(=O)NC2CC(C)(C)NC(C)(C)C2)cc1	4%
107	Cc1cc(C(=O)CSc2nc(N)cc(N)n2)c(C)n1C1CC1	-12%
108	CC(Oc1cc2oc(=O)c3c(c2cc1Cl)CCC3)C(=O)NCCCN1CCOCC1 (stereo not drawn)	-16%

This is a subset; count on the stated rates, not on these rows.
